High-throughput results from PubChem BioAssay.
D1 antagonist = blocks dopamine activation of the human D1 receptor. activity change, negative = inhibition, % at 10 µM. P21728. actives 3.2% (n = 360,000). HEK293 TREx D1 cells, calcium flux, dopamine EC80; hits give low values; in the data active means activity change below about -30%; further: on the % scale 0 is the no-effect control and ±100 the full control effect
Target sequence (P21728 whole entry, looked up): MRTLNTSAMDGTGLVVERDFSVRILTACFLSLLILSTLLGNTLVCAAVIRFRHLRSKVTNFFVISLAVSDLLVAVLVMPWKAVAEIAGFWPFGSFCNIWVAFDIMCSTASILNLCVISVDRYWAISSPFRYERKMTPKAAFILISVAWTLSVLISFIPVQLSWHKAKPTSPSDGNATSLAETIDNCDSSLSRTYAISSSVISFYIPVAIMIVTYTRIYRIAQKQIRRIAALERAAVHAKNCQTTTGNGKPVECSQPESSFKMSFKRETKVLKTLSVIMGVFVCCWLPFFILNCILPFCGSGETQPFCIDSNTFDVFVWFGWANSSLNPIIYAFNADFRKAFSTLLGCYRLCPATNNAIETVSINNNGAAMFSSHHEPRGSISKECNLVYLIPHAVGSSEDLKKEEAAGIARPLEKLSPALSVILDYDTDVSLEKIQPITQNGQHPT
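Using tetracycline-induced force-coupled D1 Hek293 cells and a calcium dye, signals were followed for 180 s after compound, then for 180 s after EC80 dopamine, to detect inhibitors.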
D1 agonist = agonists of human D1 dopamine receptor | AID 504660 | HEK293 T-REx D1 cells, calcium flux, agonist mode | P21728 | activation, % at 2 µM | actives 1% (n = 360,000); further: 0% is about no effect
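Tetracycline-induced HEK293 TREx D1 cells, force-coupled to calcium signalling, were dye-loaded with a no-wash calcium kit. Compound was pin-added after a 10 s baseline. Fluorescence was read kinetically at 1 cycle/s for 180 s, with calcium rises flagged as agonism.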
D1 PAM = human D1 dopamine receptor positive modulation | P21728 | HEK293 TREx D1 cells, calcium flux, dopamine EC20 potentiation | potentiation, % at 10 µM | actives 0.036% (n = 360,000); in the data active means potentiation above about 30%; further: 0% is about no effect
D2 PAM = positive allosteric modulators of human D2 dopamine receptor; P14416; HEK293 T-REx D2, calcium flux, EC20 dopamine potentiation; potentiation, % at 10 µM; actives 0.34% (n = 340,000); AID 485347;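 active means potentiation over 3 SD above the plate norm, cut at about 30% in these data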; further: 0% is about no effect
Target sequence (P14416 whole entry, looked up): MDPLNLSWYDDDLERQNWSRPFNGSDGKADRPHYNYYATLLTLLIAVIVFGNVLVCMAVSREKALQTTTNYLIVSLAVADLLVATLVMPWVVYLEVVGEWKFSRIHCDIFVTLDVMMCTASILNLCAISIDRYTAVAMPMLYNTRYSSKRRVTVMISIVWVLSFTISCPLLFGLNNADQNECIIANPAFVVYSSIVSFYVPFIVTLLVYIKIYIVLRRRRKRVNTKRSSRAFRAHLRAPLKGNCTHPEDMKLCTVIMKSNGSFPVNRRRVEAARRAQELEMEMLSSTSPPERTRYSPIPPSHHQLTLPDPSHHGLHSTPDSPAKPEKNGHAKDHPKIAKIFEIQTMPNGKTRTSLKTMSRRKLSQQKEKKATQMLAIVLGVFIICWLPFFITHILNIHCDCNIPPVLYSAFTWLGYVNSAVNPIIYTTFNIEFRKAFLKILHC
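Tetracycline-induced Hek293 Trex D2 cells, force-coupled to calcium, loaded with no-wash calcium dye. Compound added with 180 s kinetic read for agonism, then EC20 dopamine and a further 180 s read for potentiation.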
D2 agonist = activates the human D2 dopamine receptor | actives 0.53% (n = 340,000) | HEK293 T-REx D2 cells, calcium flux agonist mode | activation, % at 2 µM | P14416;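 active means activation over 3 SD above normal in the single-dose calcium agonist read, cut at about 30% in these data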; further: 0% is about no effect
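Agonism is scored from calcium flux in a force-coupled, inducible HEK293 cell line expressing D2, read kinetically for 180 s after compound addition against dopamine controls.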
TRHR ag = activates the human TRH receptor; actives 0.18% (n = 360,000); activation, % at 2 µM; P34981; TRHR cells, calcium flux fluo-8, FDSS agonist mode; further: 0% is about no effect
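In this calcium-flux screen, cells bearing human TRHR are dye-loaded with fluo-8, baselined for 10 cycles, then exposed to library compounds; positive kinetic calcium responses during the agonist phase mark hits, with TRH as control.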
D2 antag = antagonists of human D2 dopamine receptor; actives 2% (n = 340,000); P14416; inhibition, % at 10 µM; HEK293 TREx D2 cells, calcium flux, dopamine EC80; in the data active means inhibition above about 30%; further: 0% is about no effect
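In this primary screen, negative modulation is detected by tracking calcium flux after an EC80 dopamine challenge in inducible HEK293 T-REx D2 cells preexposed to test compound for 180 s.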
TRHR PAM = allosteric enhancers of human TRH receptor; P34981; TRHR cells, fluo-8 calcium fluorescence, EC20 TRH enhancement; enhancement, % at 2 µM; actives 0.66% (n = 360,000); in the data active means enhancement above about 30%; further: 0% is about no effect
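Enhancer read-out: after compound pinning and an initial kinetic agonist-mode read, an EC20 of TRH (10 nM final) was injected and fluo-8 calcium signal (Ex 480/Em 530) followed at 1 s/cycle for 100 cycles in TRHR-expressing cells.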
* hit, by the source's call; · = not tested or not shown; & = joins results of further samples. Unless noted, no stated cut-off is given here; in the data, active means activation above about 30%; inactive means the rest. An excerpt; the hit share may differ from the screen's.

Each structure is followed by: D1 PAM	D2 agonist	TRHR PAM	D2 antag	D1 antagonist	D1 agonist	D2 PAM	TRHR ag
1. CC(=NCCCn1ccnc1)c1c(C)[nH]n(-c2ccc([N+](=O)[O-])cc2)c1=O
  1.9	1.5	8.0	-7.5	-4.7	3.1	6.3	0.9
2. COC(=O)CSc1ncc2c(n1)-c1ccccc1N(Cc1cccc(F)c1)S2(=O)=O
  -1.4	-0.5	-4.9	·	10.1	2.2	-8.7	-0.3
3. CC(=O)c1sc(C(C)(C)C)cc1NC(=O)c1ccccc1C(=O)O
  1.1	-0.2	-8.2	4.2	12.1	1.1	3.8	-1.1
4. Cc1ccc(NC(=O)CSc2nncn3c2cc2sccc23)cc1F
  -4.0	-1.0	3.6	·	3.0	0.1	-4.2	0.0
5. CC(C)CCNC(=O)CSc1nc2ccccc2s1
  -2.6	-1.8	3.4	5.6	-16.3	3.6	8.3	-0.4
6. Cc1c(C(=O)N2CCN(c3ccccc3F)CC2)sc2ncn(CC(=O)N3CCOCC3)c(=O)c12
  -5.7	0.3	3.7	6.1	13.6	1.3	-1.8	-0.1
7. Cc1ccc(S(=O)(=O)NC2(C(F)(F)F)C(=O)Nc3c2c(=O)[nH]c(=O)n3-c2ccccc2)cc1 (centres undefined)
  -2.5&3.9	-1.2	5.9&0.1	·	-10.3&4.2	-0.2&0.1	-8.5	1.7&0.6
8. O=S(=O)(c1ccccc1)c1nnn2c1nc(NCc1ccc(F)cc1)c1sccc12
  1.2	0.7	-1.3	·	-1.9	1.0	-5.3	-0.5
9. C#CCn1c(=NC(=O)CSCC(=O)N2CCOCC2)sc2ccccc21
  -3.8	10.8	1.1	-5.8	-3.5	1.7	14.6	0.1
10. O=C(O)CCCCCNc1ncnc2ccc(Br)cc12
  -1.1	0.4	3.8	8.7	15.5	2.0	-2.7	0.2
11. CCOC(=O)c1c(NC(=O)C(C)Oc2ccccc2F)sc(C(C)=O)c1C (centres undefined)
  -3.9	·	2.4	·	11.3	-0.2	-3.6	0.4
12. N#Cc1c(N)nc(Sc2ccc(Cl)cc2)c(C#N)c1-c1ccccc1Cl
  -1.8	-0.8	-4.6	0.4	-15.4	7.7	-0.6	0.4
13. COCCCN1C(=O)C(=O)/C(=C(/O)c2ccc3c(c2)CC(C)O3)C1c1cccnc1 (centres undefined)
  2.6	1.2	-2.1	-6.8	3.9	3.4	7.2	0.4
14. CCN(CC(=O)NC(C)C)Cc1nc2c(Br)cc(Br)cc2c(=O)[nH]1
  -1.8	0.6	1.5	13.0	6.5	3.5	1.6	0.3
15. CCOC(=O)C1CCN(C(=O)CCc2nnc3ccc(NCCCN4CCCC4=O)nn23)CC1
  -6.4	-0.1	-1.9	-4.8	-2.9	6.7	0.0	0.1
16. O=C(NC1CCCCCCC1)c1cnccn1
  2.2	0.6	-0.5	12.3	0.8	0.4	-14.9	0.5
17. C=CCn1c(=S)[nH]c2scc(-c3ccco3)c2c1=O
  -5.5	0.3	-4.2	-1.2	-62.9*	5.0	4.6	0.3
18. c1ccc(-n2c(SCC3CCCCO3)nnc2-c2cccs2)cc1 (centres undefined)
  0.4	0.0	-2.1	-19.9	-31.9*	2.5	10.6	-0.6
19. CC1=CC(C)(C)Nc2ccc(OC(=O)c3ccco3)cc21
  -5.2	0.7	-0.1	-2.8	3.9	7.5	0.7	1.3
20. Fc1cccc(-c2n[nH]c(=S)n2-c2ccccc2)c1
  -0.6	0.2	-3.4	4.6	-3.8	1.1	-6.6	-0.5

Other records:
Each structure is followed by: D1 PAM	D2 agonist	TRHR PAM	D2 antag	D1 antagonist	D1 agonist	D2 PAM	TRHR ag
21. CN(Cc1ccc(F)cc1)S(=O)(=O)c1nnc(NC(=O)c2ccccc2)s1
  -0.7&1.9	0.0&-0.3	-2.5&2.2	0.5	-21.3&-2.5	18.2&10.3	-0.3&3.5	0.7&0.7
22. O=C(NC1CC(=O)N(c2ccccc2)C1)N1CCN(C(=O)c2ccco2)CC1 (centres undefined)
  4.4	0.3	11.4	24.5	-1.8	0.0	9.8	0.0
23. COc1ccc(-c2ccc3c(N)c(C(=O)Nc4ccc(C(F)(F)F)cc4)sc3n2)cc1OC
  -5.0	0.3	-4.6	·	-14.3	-0.9	8.6	0.5
24. N=c1c(C(=O)NCC2CCCO2)cc2c(=O)n3ccccc3nc2n1C1CCCC1 (centres undefined)
  -6.2	1.2	3.1	4.4	1.8	1.8	-4.7	0.9
25. N#CCSc1nc2ccccc2c(=O)n1-c1ccccc1
  7.5	-0.6	1.4	7.8	-22.3	0.3	5.1	-1.3
26. C/C(=N\NC(=O)c1ccc(NS(=O)(=O)c2cccs2)cc1)c1ccc(C(C)(C)C)cc1
  -5.7	-1.3	0.9	-3.1	-1.4	2.0	14.2	-0.3
27. Cc1nc2cc(F)ccc2n1C1CCN(C(=O)c2c(F)cccc2F)CC1
  -2.5	-4.1	23.2	-16.1	-14.6	16.7	8.9	-0.3
28. COc1ccc(-c2cc(C(=O)NCCc3ccccc3)c3c(-c4ccccc4)[nH]nc3n2)cc1OC
  -1.2	9.7	4.4	·	2.3	4.4	-3.3	-0.9
29. C=CCn1c(SCC(=O)Nc2cccnc2Cl)nnc1-c1ccccc1F
  -0.6	1.8	-3.6	2.3	1.7	2.1	9.8	-0.8
30. COc1ccc(Nc2nc(CC(C)=O)ns2)cc1OC
  1.3	0.2	29.5	10.3	-17.5	0.1	25.6	0.4
31. O=C(/C=C/c1ccccc1)NC(=S)Nc1ccc2c3c(cccc13)CC2
  -1.1	-0.6	-3.4	-9.4	0.0	6.0	-1.9	-0.9
32. CSc1nc(Oc2ccccc2)c2sccc2n1
  -9.7	1.0	-0.9	19.3	5.5	5.9	-4.9	0.2
33. COc1ccc(CCNC(=O)CSc2nc3[nH]ncc3c(=O)n2-c2ccc(C)c(Cl)c2)cc1OC
  -4.9	-1.5	-2.0	0.9	-0.6	4.4	6.6	-5.7
34. Cc1ccc(C(=O)Nc2nc3ccc(S(=O)(=O)N4CCCC4)cc3s2)cc1
  -0.9	1.8	3.6	·	-2.3	1.6	4.4	-0.3
35. CCN(CC)C(=O)CSc1nnc(-c2cc3ccccc3cc2O)n1CC
  -4.3	0.3	8.0	-6.9	-6.7	0.0	0.6	-0.3
36. COc1cc(OC)cc(C(=O)Nc2ccccc2-c2nc3ccccc3s2)c1
  -0.2	-0.8	7.2	·	-0.4	0.8	·	0.6
37. CCC(NS(=O)(=O)c1ccc2c(c1)NC(=O)C(C)C(=O)N2)c1cccs1 (centres undefined)
  -10.1	12.4	-4.6	8.5	12.2	1.5	-1.8	-0.2
38. CCOc1cc2[nH]c(=S)n(CCC(=O)NCc3ccco3)c(=O)c2cc1OCC
  3.4	·	-3.3	·	-8.8	-2.6	·	0.0
39. O=C(COC(=O)c1c(Cl)cccc1Cl)Nc1cccc(S(=O)(=O)NC2=NCCCCC2)c1
  -5.0	0.2	0.8	-9.8	-22.0	0.5	9.1	0.9
40. COc1ccc2cc(C(=O)COC(=O)COc3ccc4c(C)cc(=O)oc4c3)ccc2c1
  0.4	1.4	-1.4	21.7	2.7	3.8	-2.6	0.6

Along the list, from the results shown.
D1 agonist for nos. 26 to 34, in order: 2.0, 16.7, 4.4, 2.1, 0.1, 6.0, 5.9, 4.4, 1.6

In the list so far, 2 contain a CF3 group.
Each structure is followed by: D1 PAM	D2 agonist	TRHR PAM	D2 antag	D1 antagonist	D1 agonist	D2 PAM	TRHR ag
7. Cc1ccc(S(=O)(=O)NC2(C(F)(F)F)C(=O)Nc3c2c(=O)[nH]c(=O)n3-c2ccccc2)cc1 (centres undefined)
  -2.5&3.9	-1.2	5.9&0.1	·	-10.3&4.2	-0.2&0.1	-8.5	1.7&0.6
23. COc1ccc(-c2ccc3c(N)c(C(=O)Nc4ccc(C(F)(F)F)cc4)sc3n2)cc1OC
  -5.0	0.3	-4.6	·	-14.3	-0.9	8.6	0.5

The listing continues.
Each structure is followed by: D1 PAM	D2 agonist	TRHR PAM	D2 antag	D1 antagonist	D1 agonist	D2 PAM	TRHR ag
41. CCc1nc(N2CCN(C(=O)c3ccco3)CC2)c2c3c(sc2n1)CCCC3
  2.0	0.3	-2.9	-1.0	-23.4	1.0	17.1	-0.1
42. COCCn1c(=S)[nH]c2sc3c(c2c1=O)CCCC3
  -2.4	-0.4	8.2	-14.9	-0.6	1.8	7.8	-1.7
43. CCOC(=O)c1cccc(NC(=O)N2CCOCC2)c1
  -2.5	1.0	2.6	8.8	5.3	1.5	-0.9	0.4
44. COc1ccc(CC(=O)c2ccccc2C(=O)O)cc1
  10.4	-0.2	6.5	-8.6	-5.3	0.6	2.7	-0.1
45. O=C(Cc1ccccc1)NC1CCN(S(=O)(=O)c2cccc(F)c2)CC1
  -11.1	-0.1	4.9	16.6	5.0	3.6	-5.2	-0.3
46. CC(=O)N(CCC(c1ccco1)C(C)C)Cc1ccc(OC(C)C)cc1 (centres undefined)
  2.4	0.9	-6.6	2.4	-4.2	5.6	10.4	-0.8
47. CCN(CC)S(=O)(=O)c1ccc(OC)c(NC(=O)Cn2cnc3c2c(=O)n(C)c(=O)n3C)c1
  0.7	-0.3	2.7	0.0	-4.2	0.4	-0.3	0.1
48. COCCn1nnnc1C(c1cc2cccc(C)c2[nH]c1=O)N1CCN(c2ccccc2F)CC1 (centres undefined)
  -5.8	12.0	-0.7	34.3*	-15.1	0.4	-11.5	-0.6
49. COc1ccc(/C=C/C(=O)NC(=S)N2CCN(c3ccccn3)CC2)cc1
  -0.4	2.1	5.1	-3.1	0.0	0.6	-1.0	-0.3
50. COc1cccc(N/C(SCc2cccc([N+](=O)[O-])c2)=C(/C#N)C(=O)NCc2cccs2)c1
  -3.8	2.5	-4.9	-1.4	14.0	11.3	-3.5	0.5
51. CCOC(=O)N1CCN(C(=S)NC2CCCC2)CC1
  -2.8	-0.3	32.6*	-7.1	14.7	0.6	13.3	0.2
52. c1coc(Cn2nnnc2CN2CCN(C3CCCCC3)CC2)c1
  -3.9	0.0	-0.6	-13.9	-18.4	1.1	-9.6	0.7
53. Cc1ccc(C)n1-c1ccc(-c2nnc3n2CCCCC3)s1
  -4.2	0.3	-1.9	-1.0	1.5	2.5	-3.8	0.6
54. Cc1ccc(/C=C2/Sc3ccc(C(=O)N4CCN(c5ccccn5)CC4)cc3NC2=O)cc1
  -4.4	6.5	2.1	18.4	-46.0*	4.1	-2.9	0.2
55. Cc1ccc(C(NC(=O)Cc2cccs2)C(=O)Nc2ccc(C(C)C)cc2)cc1 (centres undefined)
  1.4	0.6	5.0	·	1.2	5.3	22.2	1.3
56. O=C(CSc1nnc2ccccn12)Nc1cccc(S(=O)(=O)N2CCOCC2)c1
  -0.9	1.0	1.8	13.0	0.4	-0.1	-7.1	0.7
